High-throughput results deposited in PubChem BioAssay by several laboratories.
Rce1 inh – yeast Rce1p protease inhibitors, primary screen, biochemical, fluorescence, cell-free homogeneous | calls only | yeast membranes, quenched prenylated peptide cleavage fluorescence | AID 2563, 2010 | hit rate 0.27% among 290,000 | CAAX prenyl protease 2 (Saccharomyces cerevisiae (strain ATCC 204508 / S288c)), Q03530;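 active = fall in fluorescence gain of 50% or more versus controls, with final raw signal at or below 3038400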;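 note: plate controls were neutral control wells for no effect and wells lacking membranes for full effect; tested at 10 µM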
PABP FP inh – PABP poly(A) RNA binding inhibitors, primary screen, biochemical, fluorescence polarization, uHTS; Polyadenylate-binding protein 1 (Homo sapiens), P11940; inhibition, % at 35 µM; hit rate 1% among 290,000; AID 2014, 2009;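 active = 50% or more with normal probe brightness, or confirmed in later tests; about a fifth of its hits are not listed in these tables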;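 note: calls also rest on retests at 20 µM and on dose response follow-up; controls were probe without protein and protein plus probe with vehicle; some compounds called inactive have numbers as strong as hits; many hits fall short of the cut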
Target sequence (P11940 whole entry, looked up): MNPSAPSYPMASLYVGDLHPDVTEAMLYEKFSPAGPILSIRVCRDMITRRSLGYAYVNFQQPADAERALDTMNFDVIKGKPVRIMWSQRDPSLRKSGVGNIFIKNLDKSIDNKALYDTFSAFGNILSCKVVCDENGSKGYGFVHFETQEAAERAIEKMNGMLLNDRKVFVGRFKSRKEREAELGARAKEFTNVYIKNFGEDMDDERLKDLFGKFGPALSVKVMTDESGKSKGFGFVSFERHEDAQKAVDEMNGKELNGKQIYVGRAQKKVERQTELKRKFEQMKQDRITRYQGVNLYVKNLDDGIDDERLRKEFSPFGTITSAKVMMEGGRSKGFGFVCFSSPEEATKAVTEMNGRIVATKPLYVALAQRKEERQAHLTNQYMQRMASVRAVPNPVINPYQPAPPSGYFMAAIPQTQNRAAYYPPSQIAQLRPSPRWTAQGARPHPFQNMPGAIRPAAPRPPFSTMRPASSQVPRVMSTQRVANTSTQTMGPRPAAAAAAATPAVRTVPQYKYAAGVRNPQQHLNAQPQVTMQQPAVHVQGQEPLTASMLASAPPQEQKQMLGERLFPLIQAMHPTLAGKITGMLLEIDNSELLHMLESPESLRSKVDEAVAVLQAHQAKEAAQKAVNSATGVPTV
MT1-MMP act inh – blockers of MT1-MMP proenzyme processing, primary screen, HT1080 RFP-PRO-GFP cells, GFP/RFP fluorescence. hit rate 0.061% among 360,000. Matrix metalloproteinase-14 (Homo sapiens), P50281. GFP/RFP ratio change, % at 20 µM. AID 651647, 2012. GFP/RFP ratio fluorescence, overnight; percent of plate control window, DMSO zero;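 active = GFP/RFP ratio change of at least 30% with cell ATP level not reduced by more than half and red fluorescence within 50% of control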; note: strong numbers were not always called active
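Material – HT1080 RFP-PRO-GFP cells · Control set – DMSO wells and RFP-L50D-GFP cells · Incubation – overnight cell settling, then overnight compound exposure, 37 °C, 5% CO2 · Compound dosing – single-point 20 µM compound, 1% DMSO · Read-out – GFP/RFP fluorescence ratio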
HIV Env fusion – inhibitors of HIV-1 Env-driven cell-cell fusion, primary screen, HeLa-JRFL effector, CEM21 target cells, luciferase; inhibition, % at 12.3 µM; hit rate 1.1% among 360,000;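 active = mean replicate inhibition score of at least 50 and every replicate individually at or above 50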;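 note: 0% = plate neutral controls and 100% = maraviroc near 300 nM; one replicate is shown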
Yeast UUG start – modulators of yeast start codon fidelity, primary screen, whole organism, S. cerevisiae, single point, plate reader. S. cerevisiae UUG-firefly luciferase reporter, luminescence/redox ratio. activity score, % at 18.7 µM. hit rate 0.13% among 350,000;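 active = replicate mean at a twofold rise or more, about +100% in these data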;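 note: firefly luciferase made from a UUG start codon reports start codon fidelity; reporter light over untreated wells divided by growth signal over untreated wells; some hits fall short of that in this replicate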
eIF4H inh – human eIF4H binding inhibitors, primary screen, translation initiation inhibitor project, biochemical, uHTS, fluorescence polarization. hit rate 0.94% among 290,000. Eukaryotic translation initiation factor 4H (Homo sapiens), Q15056. inhibition, % at 35 µM. eIF4H fluorescence polarization binding assay;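 active = 50% or more with normal probe brightness, or confirmed in later tests; about a fifth of its hits are not listed in these tables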;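 note: calls also rest on retests at 20 µM and on dose response follow-up; 0% = protein and probe with vehicle and 100% = probe without protein; strong numbers were not always called active; many hits fall short of the cut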
CSC inhib – cancer stem cell viability inhibitors, primary screen, luminescence | inhibition, % at 7.5 µM | hit rate 1.1% among 300,000 | cancer stem cell-like cells viability;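 active = mean at 75% or more and at least half the replicates too; tested in HMLE shEcad cells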;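 note: 0% = median of negative and 100% = median of positive control wells; the first replicate is given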
eIF4H inh retest – second read-out of eIF4H inh, no call of its own (marks repeat the call); inhibition, %; compound at 20 µM; confirmation average;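 mean of two retest wells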
PABP FP inh retest – also measured in PABP FP inh; calls as there; inhibition, %; compound at 20 µM; confirmation repeats;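 mean of two retest wells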
MT1-MMP act inh RFP – second read-out of MT1-MMP act inh, no call of its own (marks repeat the call); RFP signal change, %; measured here: RFP expression control read;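 0 = vehicle wells; hits needed this value within 50% of zero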
Active calls of the source: *; i = inactive; x = not tested or not shown; + = active, no number.

SMILES	Rce1 inh	PABP FP inh	MT1-MMP act inh	MT1-MMP act inh RFP	HIV Env fusion	Yeast UUG start	eIF4H inh	CSC inhib	others
Cc1cc(C)cc(NC(=O)CN2C(=O)NC(Cc3c[nH]c4ccccc34)C2=O)c1 (stereo not given)	x	x	5.5	-0.3	x	-5.6	x	-2.7
CC1CN(C(=O)Cn2cc(SCC(=O)N3CCOCC3)c3ccccc32)CC(C)O1 (stereo not given)	i	5.3	-1.8	1.9	-16.2	-4.8	-10.8	11.4
Cn1c(=O)c2c(nc(NC3CCCCC3)n2Cc2ccccc2)n(C)c1=O	i	7.6	-12.3	-4.8	-1.0	-35.7	-5.0	24.9
CCOC(=O)c1c(S(=O)(=O)NCCCc2ccco2)c(C)n(C)c1C	i	35.0	-3.2	1.2	-3.2	-0.8	-10.5	-5.0
Cc1ccc(S(=O)(=O)CCC(=O)Oc2ccc(-c3nnco3)cc2)cc1	i	x	1.8	-0.1	7.9	x	x	2.0
CC(/C=N/NC(=O)c1sc(N)nc1C)=C\c1ccccc1	i	-0.5	5.2	5.9	0.2	x	-2.5	-9.0
CCOC(=O)COc1c(OC)cc(Cl)cc1C1NC(=O)NC(C)=C1C(C)=O (stereo not given)	i	-3.7	7.3	2.1	11.3	-0.6	-4.9	-9.9
Cc1nc(C(N)=O)c(N)n1CCc1ccccc1	i	35.0	0.2	5.0	1.2	-10.3	63.6	-7.6	eIF4H inh retest=7.1;PABP FP inh retest=12.3
Cc1cc(NC(=O)CCC(=O)N(c2cccnc2)C(C(=O)NC2CCCC2)c2ccccc2F)no1 (stereo not given)	i	2.1	x	x	x	x	-1.9	x
O=C(NCc1cc(Cl)cc(Cl)c1)c1ccc2sc([C@@H]3O[C@H](CO)[C@H](O)[C@H](O)[C@H]3O)nc2c1	x	x	1.3	1.4	25.3	-17.5	x	x
Cc1cccc(NC(=O)c2cc(C)nc3ccccc23)c1	i	2.5	-4.4	-0.1	1.0	7.5	-6.3	-11.8
C[C@H](NS(=O)(=O)c1ccc2c(c1)OCCCO2)C(=O)N1CCN(Cc2ccc(C#N)cc2)CC1	x	x	6.2	0.9	6.1	-5.7	x	-12.9
COc1ccc(-c2nn(-c3ccccc3F)cc2CNCCn2nc(C)cc2C)cc1	i	-0.6	-1.0	-4.6	24.5	x	-6.5	-2.4
CN(C(=O)c1cccc(NC(=O)Cc2cccc(NC(=O)C3CCN(S(=O)(=O)c4cccc([N+](=O)[O-])c4)CC3)c2)c1)C1CC1	x	x	1.3	-3.2	9.0	-2.6	x	x
COc1ccc(NC(=O)CN(C)CC(=O)NC(=O)NC2CCCCC2)cc1	x	x	2.4	0.8	1.3	1.3	x	x
COc1ccc(-c2cc3ccccc3oc2=O)cc1NC(=O)c1ccc([N+](=O)[O-])o1	i	2.1	4.8	-5.6	-55.4	x	-2.1	x
O=C1COCCOCCOCC(=O)NCCN1	i	0.9	-0.9	2.3	-0.5	x	-9.9	2.0
COC(=O)[C@H](CCSC)NC(=O)Nc1ccc(OC)c(Cl)c1	i	-12.2	-0.1	3.5	x	-5.3	-0.2	-2.8
Cc1cccc(OCC(=O)O/N=C(\N)c2ccncc2)c1	i	12.5	2.2	-0.2	-0.6	-15.6	-0.3	-2.1
COc1ccc(-c2c(C)c3ccc(OCC(C)=O)cc3oc2=O)cc1	i	8.5	x	x	x	1.2	8.5	3.7
S=C(NCCc1cnc[nH]1)NC1CCCC1	i	2.2	2.5	3.8	-5.9	x	25.4	3.9
COc1ccccc1N1CCN(S(=O)(=O)CCNC(=O)c2cc(=O)c3ccccc3o2)CC1	i	3.0	5.5	-3.2	15.3	-6.8	2.9	-5.6
CN(NC(=O)Nc1ccc(Cl)cc1)c1c(Cl)c(Cl)nn1C	i	4.5	0.5	2.7	4.6	-7.1	1.2	-30.1
C=CCSc1nc2c(c(=N)n1CC=C)C1CCCC1S2 (stereo not given)	i	2.5	-2.2	-5.1	-7.6	x	7.2	57.4
Cc1cc(C)c(C(N)=O)c(Cl)n1	i	74.6*	-1.9	4.2	-0.9	x	19.4*	-10.8	eIF4H inh retest=93.1*;PABP FP inh retest=79.1*
O=C(O)CN1C(=O)C2C3C=CC(C2C1=O)C1C(=O)N(CC(=O)O)C(=O)C31 (stereo not given)	i	x	3.2	6.2	-3.3	x	x	-0.9
CCN(C(=O)COC(=O)c1ccc(Cl)c(S(=O)(=O)N2CCCCC2)c1)C1CCS(=O)(=O)C1 (stereo not given)	x	x	5.8	0.3	-2.2	10.3	x	-7.1
Cc1ccc(NC(=O)COc2ccccc2)cc1S(=O)(=O)N1CCCCCC1	i	x	6.8	-12.3	0.1	-9.3	x	-21.7
CCCCN1Cc2c(nc3cc(-c4ccccc4)[nH]n3c2=O)C1=O	i	13.1	0.5	0.8	-5.5	x	6.0	-6.9
O=C(N/N=C/c1c[nH]c2ccccc12)c1ccc2c(c1)OCCO2	i	-1.4	6.1	-5.0	-156.0	1.3	2.0	34.7
COc1ccc(Cl)cc1C(=O)NNC(=O)c1ccc(F)c(S(=O)(=O)N2CCOCC2)c1	x	x	7.4	-14.7	-4.2	-8.7	x	-8.8
COc1cccc(CNC(=O)CCCN2C(=O)C(c3ccccc3)Oc3cccnc32)c1OC (stereo not given)	i	x	-1.2	1.0	23.6	3.6	x	-3.3
COc1cc(C(C)=O)ccc1OCC(O)Cn1nc(C)c(Br)c1C (stereo not given)	i	-7.1	10.7	2.6	-0.5	-11.2	3.6	x
O=C(CN1C(=O)NC2(CCCc3ccccc32)C1=O)Nc1cccc(S(=O)(=O)N2CCCCC2)c1 (stereo not given)	i	4.8	0.6	-3.9	x	x	1.1	-6.5
O=C(OCC(=O)N1CCN(C(=O)c2ccco2)CC1)c1ccccc1OCc1ccccc1	i	-6.7	0.9	1.1	x	15.5	-3.5	-8.4
Cc1ccc(OCC(=O)Nc2ccon2)c([N+](=O)[O-])c1	i	5.2	0.4	2.2	-24.2	-20.6	-4.5	-1.1

An excerpt from above in order of formula weight, highest first.
SMILES	Rce1 inh	PABP FP inh	MT1-MMP act inh	MT1-MMP act inh RFP	HIV Env fusion	Yeast UUG start	eIF4H inh	CSC inhib	others
Cc1ccc(NC(=O)COc2ccccc2)cc1S(=O)(=O)N1CCCCCC1	i	x	6.8	-12.3	0.1	-9.3	x	-21.7
Cn1c(=O)c2c(nc(NC3CCCCC3)n2Cc2ccccc2)n(C)c1=O	i	7.6	-12.3	-4.8	-1.0	-35.7	-5.0	24.9
O=C(N/N=C/c1c[nH]c2ccccc12)c1ccc2c(c1)OCCO2	i	-1.4	6.1	-5.0	-156.0	1.3	2.0	34.7

Other records follow:
SMILES	Rce1 inh	PABP FP inh	MT1-MMP act inh	MT1-MMP act inh RFP	HIV Env fusion	Yeast UUG start	eIF4H inh	CSC inhib	others
Cc1cc(C)n(-c2nnc(C)n2/N=C/c2ccccc2OCc2ccccc2Cl)n1	i	-13.2	-6.9	-4.8	x	x	-3.8	-11.1
O=C(Nc1ccncc1)C1CCCN(S(=O)(=O)c2cccc3cccnc23)C1 (stereo not given)	i	-13.7	-4.1	-10.2	-69.6	-7.8	-7.8	52.6
COCC(=O)N(C)CC1CCCN(CCc2ccccc2OC)C1 (stereo not given)	i	7.7	-1.6	-0.3	-7.4	-10.8	-3.6	-6.1
O=C(CN1C(=O)C2C3C=CC(C3)C2C1=O)OCC(=O)c1ccc(Cl)c([N+](=O)[O-])c1 (stereo not given)	i	-3.7	4.8	4.2	5.8	-15.7	-0.2	4.3
O=C(c1cccs1)N1C[C@H](O)[C@@H](n2cc(-c3ccc(F)cc3)nn2)C[C@@H]1c1ccccc1	x	x	3.2	2.1	-3.0	5.5	x	x
CCOC(=O)C(NC(=O)c1ccc(F)cc1)(Nc1sc2c(c1C(N)=O)CCC2)C(F)(F)F (stereo not given)	i	2.5	-6.3	7.1	-13.7	x	77.9	-0.7	eIF4H inh retest=-1.7;PABP FP inh retest=4.6
O=C1c2ccccc2C(=O)N1CC1=CCS(=O)(=O)C1	i	-2.8	-8.4	-0.4	x	3.6	-7.1	21.5
Cc1ccc2oc(=O)c(/C=C(\O)c3ccccc3)nc2c1	i	-8.4	6.9	1.6	6.0	x	15.1	14.7
Cc1cccc(N2CC(O)=C(c3nc4ccccc4n3C)C2=N)c1	i	-0.3	2.5	0.9	-25.0	-26.0	-1.6	-8.6
Cn1nnc(NC(=S)NC(=O)c2cccc3c(Cl)cccc23)n1	i	-2.6	-0.4	1.0	2.3	-19.1	-0.5	3.0
CC(/C=N\NC(=O)CN1CCN(S(=O)(=O)c2ccc(C)cc2)CC1)=C\c1ccccc1	+	-22.1	3.1	-0.8	-19.9	x	-15.9	-4.1
Cc1ccc2nc(-c3ccc(S(=O)(=O)N4CCCCC4)cc3)cn2c1	i	-7.9	-1.7	-4.6	-21.8	x	-1.2	2.8
Cc1cc(C)n(-c2cc(N3CCOCC3)nc(-c3ccccc3)n2)n1	i	8.9	-5.4	-4.0	x	-7.0	-3.5	-1.0
CCNC(=O)c1c(O)c2cccc3c2n(c1=O)CC3	i	9.9	-0.2	2.2	x	-9.8	13.6	-5.8
COc1ccccc1CNC(=O)c1ccc2nc3[nH]c4ccccc4c3nc2c1	i	6.6	6.9	-0.5	x	-27.7	0.8	12.1
O=C(O)CCc1nn2c3ccccc3n(CC(=O)c3cccs3)c2nc1=O	i	0.4	5.1	1.6	-9.0	x	-4.7	5.7
O=S(=O)(/C=C/c1ccccc1)N1CCOCC1	i	-3.6	-0.5	1.2	0.3	-11.8	-1.9	-6.4
Cc1cccc(OCC(=O)Nc2ccccc2N2CCN(C)CC2)c1	i	-7.8	-5.6	-4.8	-0.3	-21.2	-1.5	-0.7
COc1cccc(S(=O)(=O)Nc2ccc3sc(C)nc3c2)c1	i	-3.6	0.7	-5.3	-1.4	22.0	2.4	-11.9
Cc1ccc(CN2C3=NCCN3c3ccccc32)cc1	i	-2.1	-0.7	-2.8	14.5	x	-6.1	-9.1
O=[N+]([O-])c1ccccc1OCCCN1CCc2ccccc2C1	i	-3.4	-0.5	1.2	-6.9	-10.6	-4.2	22.0
CC(C)(C)c1nc2ccccc2c2nnc(SCC(=O)NCc3ccco3)n12	i	3.7	-0.8	-4.1	7.0	-20.8	-6.2	-13.6
CNC(=O)c1cc(S(=O)(=O)N2CC(C)OC(C)C2)ccc1N1CCOCC1 (stereo not given)	i	2.1	-2.3	-0.9	-1.1	10.1	88.6	x	eIF4H inh retest=-7.9;PABP FP inh retest=0.1
CCCC(=O)n1nc(-c2cccnc2)nc1NCc1ccc(OC)cc1	i	78.7	4.4	-1.9	-33.3	x	23.4	x	eIF4H inh retest=-6.4;PABP FP inh retest=-6.3
COc1ccc([N+](=O)[O-])cc1NC1C2CC3CC(C2)CC1C3 (stereo not given)	i	13.6	5.0	4.2	-11.1	-19.5	-7.5	-15.1
CSc1ccc(CN(C)C(=O)c2cccc(S(=O)(=O)N3CCN(Cc4ccccc4)CC3)c2)cc1	i	x	-3.3	-28.5	68.9*	-9.1	x	-4.3
CC(=O)NCCNc1nc2cc(-c3ccccc3CO)sc2c(=O)n1C	x	x	1.3	2.2	-6.8	-12.9	x	x
COc1cc(NC(=O)COC(=O)Cn2cnc3c2c(=O)n(C)c(=O)n3C)cc(OC)c1	x	x	-1.8	-0.5	-5.5	-13.2	x	x
Cc1ccc(/C=C(\C#N)C(=O)Nc2cccc(C)n2)cc1	i	0.7	-3.2	0.3	-5.2	0.9	-5.1	-10.6
